gsp antagonist = antagonists of gsp mutant (McCune-Albright syndrome) | gsp-mutant cells, cAMP HTRF, 30 min; control for the full effect not named in the record | Potency, µM (highest dose often 76.9 µM), for the others: at the top dose activity change, negative = inhibition, usual class: inhibitors | 340,000 tested, 0.4% active | AID 624288; active = falling curve of any shape with a large fitted effect; inconclusive = falling curve, mostly with a smaller effect; inactive = flat or rising curve; cell line not stated here;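 further: intracellular cAMP measured with PDE inhibitor Ro 20-1724 present during compound exposure; potency means the concentration at half of the fitted maximal effect; on the % scale 0 is the no-effect control and ±100 the full control effect; nearly all actives have a fitted effect of over 65% in size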
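Measurement of cellular cAMP by homogeneous time-resolved fluorescence following a 30 min compound exposure at 37C. The PDE inhibitor […] was present throughout; the assay buffer was DPBS with 0.05% BSA and 0.005% Tween 20.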
TRPV1 potentiator = potentiators of human vanilloid receptor 1 (TRPV1); Q8NER1; TRPV1-expressing cells, Fluo-8 calcium influx, capsaicin EC20 potentiation; host cell line not named in the record; control for the full effect not named in the record; AID 540277; 320,000 tested, 0.02% active; potentiation, % at 8.33 µM; active means potentiation above 80%; inconclusive means 30% to 80%; inactive means below 30%; further: 0% is about no effect
Target sequence (Q8NER1 whole entry, looked up): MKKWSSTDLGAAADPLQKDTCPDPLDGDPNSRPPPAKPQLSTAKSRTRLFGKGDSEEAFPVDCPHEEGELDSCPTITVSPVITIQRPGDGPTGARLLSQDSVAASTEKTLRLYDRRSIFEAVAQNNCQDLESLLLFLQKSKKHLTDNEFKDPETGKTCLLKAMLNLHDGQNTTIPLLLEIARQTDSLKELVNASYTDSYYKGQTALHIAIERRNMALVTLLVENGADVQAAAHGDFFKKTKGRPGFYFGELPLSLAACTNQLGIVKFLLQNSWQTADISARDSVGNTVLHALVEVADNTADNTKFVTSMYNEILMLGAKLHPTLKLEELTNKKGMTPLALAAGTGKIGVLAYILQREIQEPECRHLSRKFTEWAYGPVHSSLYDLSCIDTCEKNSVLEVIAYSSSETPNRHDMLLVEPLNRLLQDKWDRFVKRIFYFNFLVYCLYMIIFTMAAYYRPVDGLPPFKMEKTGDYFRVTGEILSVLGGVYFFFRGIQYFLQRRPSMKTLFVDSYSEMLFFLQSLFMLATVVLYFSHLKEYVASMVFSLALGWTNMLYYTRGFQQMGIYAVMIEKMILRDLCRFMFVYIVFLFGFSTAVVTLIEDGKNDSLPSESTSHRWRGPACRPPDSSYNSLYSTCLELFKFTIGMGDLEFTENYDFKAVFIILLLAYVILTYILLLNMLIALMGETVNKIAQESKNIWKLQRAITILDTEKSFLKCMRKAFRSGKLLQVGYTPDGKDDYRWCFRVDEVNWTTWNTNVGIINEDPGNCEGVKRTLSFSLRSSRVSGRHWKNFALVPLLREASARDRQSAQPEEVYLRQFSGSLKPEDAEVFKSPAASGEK
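Cells expressing TRPV1 were dye-loaded with Fluo-8 and read kinetically: 10 s baseline, 3 min after compound (agonist portion), then 2 min after EC20 capsaicin (allosteric enhancer portion). Calcium-bound dye fluorescence at 480/520 nm.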
Sfp PPTase inh = Sfp phosphopantetheinyl transferase inhibition; Potency, µM, inactives show max response, negative = inhibition, hits mostly inhibitors; AID 1490; 310,000 tested, 3.5% active; Q9F4F7; Biochemical Sfp PPTase activity, qHTS; active means well fitted inhibition curve with a large enough effect; inconclusive means small, poorly fitted or top-dose-only effect, or another doubt; inactive means no such curve, though single readings can be large or run the other way;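 further: the enzyme is Sfp with the accession as filed and its product quenches rhodamine fluorescence; potency means the concentration at half of the fitted maximal effect; 0% = enzyme reaction without inhibitor and -100% = no enzyme wells; top concentration of the series not given in the record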
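With Hepes-Na pH 7.6 buffer containing 10 mM MgCl2, Sfp (15 nM) modified BHQ-2-YbbR (12.5 uM) using rhodamine-CoA (5 uM). Two reads 30 minutes apart at 525/598 nm yielded each well's rate.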
Menin-MLL FL inh = menin-MLL binding inhibition, fluorescein peptide; FP activity change, % at 61.4 µM; 290,000 tested, under 10 active; Fluorescence polarization, fluorescein-MLL peptide displacement from menin; inconclusive = falling polarisation curve, or a change in total fluorescence; inactive = total fluorescence flat and polarisation flat or rising; no compound was filed as active; the % refers to the polarisation; negative = inhibition;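 further: % of control where 0% means no effect; inhibitors lower the polarisation; unlabelled MLL peptide was the positive control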
ClpP mod = qHTS Assay for Activators of ClpP; ATP-dependent Clp protease proteolytic subunit (Bacillus subtilis (strain 168)), P80244; purified B. subtilis ClpP, FRET peptide cleavage, 20 min; 340,000 tested, 1.9% active; Potency, µM (doses to about 57.5 µM), without a hit: at the highest dose activity change, negative = active; AID 651965, 2013; active = well fitted falling curve with a large enough effect; inconclusive = small, poorly fitted or top-dose-only effect; inactive = no such curve, though single readings can be large or run the other way; further: potency means the concentration at half of the fitted maximal effect; the source files actives as falling curves though it sought activators and does not explain the sign; nearly all actives have a fitted effect of over 65% in size; many hits overshoot -100%
Target sequence (P80244 whole entry, looked up): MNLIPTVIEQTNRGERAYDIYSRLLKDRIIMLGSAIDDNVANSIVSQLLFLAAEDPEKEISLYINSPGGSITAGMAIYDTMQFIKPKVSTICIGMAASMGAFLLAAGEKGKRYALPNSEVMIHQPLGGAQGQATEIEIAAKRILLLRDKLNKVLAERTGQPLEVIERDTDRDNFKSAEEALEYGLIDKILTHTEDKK
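FRET quenching reversal measured ClpP activation: 10 microg/mL B. subtilis ClpP at pH 8 with the FRET-FV decapeptide, read at 430 nm after 320 nm excitation. The 20-min minus 0-min signal was scaled between DMSO/no-enzyme wells and ADEP (5.8 microM final).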
CtBP-E1A inh = CtBP/E1A binding inhibition. AlphaScreen GST-E1A/His-CtBP binding, 1536-well; hits give low values; control for the full effect not named in the record. 340,000 tested, 0.49% active. activity change, % (test concentration not listed); in the data active means activity change below about -65%; inconclusive means about -30% to -65%; inactive means above about -30%; further: on the % scale 0 is the no-effect control and ±100 the full control effect; compound concentration not given in the record
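GST-E1A and His-tagged CtBP (125 nM each as 5X stock) were preincubated with pin-transferred compound for 2 h at 37 °C in the dark, then glutathione donor and nickel acceptor beads were added for 1 h before AlphaScreen reading.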
gsp ag = gsp mutant agonism. AID 624287. 340,000 tested, 0.13% active. Potency, µM (doses to about 76.9 µM), inactives show at the top dose activation (cAMP increase), most hits filed as activators. gsp mutant cells, cAMP HTRF, 30 min; control for the full effect not named in the record; active = well fitted activation curve with a large enough effect; inconclusive = small, poorly fitted or top-dose-only effect, or another doubt; inactive = no such curve, though single readings can be large or run the other way; cell line not stated here;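 further: phosphodiesterase inhibitor Ro 20-1724 added with compounds to block cAMP breakdown; potency means the concentration at half of the fitted maximal effect; nearly all actives have a fitted effect of over 60% in size; about a fifth of the inactives were tested at one dose only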
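Cells in DMEM/10% FBS with G418 were pretreated with compounds in DMSO plus […] (300 uM stock) for 30 min at 37C. cAMP was measured by HTRF (cAMP-d2 plus anti-cAMP antibody-K) after 30 min at room temperature.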
* = called active by the depositor; ? = inconclusive; / = not tested or not shown; & = joins results of further samples; [ ] = remark or other dose. These rows are one share of the data; count on the stated rates, not on these rows.

Results follow in this order: TRPV1 potentiator	gsp antagonist	Menin-MLL FL inh	Sfp PPTase inh	CtBP-E1A inh	gsp ag	ClpP mod
CC(=NCC1CCCO1)c1c(O)n(-c2ccccc2C)c(=O)[nH]c1=O (stereo unspecified)
 : -3	5%	0.8	9%	-10	-2%[15.4 µM]	/
CCCOC(=O)c1ccc(-[n+]2c(-c3ccccc3)cc(-c3ccccc3)cc2-c2ccccc2)cc1
 : -14	-5%	/	/	-3	/	-18%
COc1ccc(OC)c(C2C(C#N)=C(N)Oc3c2c(C)nn3-c2ccc(C)cc2)c1 (stereo unspecified)
 : 8	4%	6.8	17%	-5	-40%[inhibitor]	-0.9%
CCNC(=S)N1CCn2cccc2C1c1cccnc1 (stereo unspecified)
 : 1	-10%	1.8	8%	-3	-4%[15.4 µM]	/
C=CCc1c(C)nc(C)nc1N/N=C/c1ccc(N(C)C)cc1
 : -1	-15%	2.1	-5%	-9	41%	20µM*
Cc1cc(O)c2c(c1)OC(C)(C)C1=C2CC(C)CC1 (stereo unspecified)
 : -3	-7%	0.0	11%	0	-29%	0.8%
S=C(Nc1ccc(Cl)cc1)N1CCOCC1
 : /	13%	/	/	0	?	-3.3%
Cc1ccc(-n2c(O)c(C=Nc3ccc(S(N)(=O)=O)cc3)c(=O)[nH]c2=O)cc1
 : 2	3%	13	9%	5	16%	/
COC(=O)C1=C(c2cccc(OC)c2OC)C[C@@H]2CC[C@H]1N2C(=O)NC(C)C
 : /	10%	/	/	/	-3%	-1.3%
Cc1c(CC(=O)N2C[C@H]3C[C@@H](C2)c2cccc(=O)n2C3)c(=O)oc2c(C)c(O)ccc12
 : -8	8%	-3.5	18%	1	26%	4.5%
C=CCn1c(O)c(C(CC)=Nc2cccc(C(=O)O)c2)c(=O)[nH]c1=O
 : 10	11%	1.9	-9%	11	?	/
CN(C)C1(CNC(=O)c2ccc(NS(=O)(=O)c3ccc(Cl)c(Cl)c3)cc2)CCCCC1
 : 2	1%	/	/	1	10%	1.0%
COCc1cc(C)c(C#N)c(=S)[nH]1
 : -7	-1%[15.4 µM]	-0.9	10µM*	-7	?	-1.6%
CN(C)C(Cc1ccccc1)C(=O)c1ccc(-c2ccccc2)cc1 (stereo unspecified)
 : -5	-5%	1.4	-10%	-19	-12%	-4.5%
Cn1c(O)c(C(=N)COc2cccc(Cl)c2)c(=O)n(C)c1=O
 : 1	12%	4.5	5%	0	9%	-0.3%
COC(=O)C1=C(c2cccc(OCc3ccccc3)c2)C[C@@H]2CC[C@H]1N2C(=O)NCCOc1ccccc1Cl
 : -2	-9%	/	/	-12	2%	-4.3%
CCN(CC)C(=O)Oc1ccc(NC(=O)N2CCOCC2)cc1
 : -4	5%	-3.7	-7%	/	0%	3.0%
CCCCCn1c(=O)c(C(=O)NC(C)c2ccccc2)c(O)c2ccccc21 (stereo unspecified)
 : 11	4%	3.2	-9%	-13	3%[15.4 µM]	-1.5%
Nc1cc(Cl)c2nonc2c1[N+](=O)[O-]
 : -1	27%	2.7	-17%	-1	8%	-5.2%
CC(C)Cn1cc(C(=O)N2CCC3(CC2)OCCO3)c2c3ccccc3n(C)c2c1=O
 : -1	-11%	6.7	11%	3	-33%[inhibitor]	16µM*

(continued)
Results follow in this order: TRPV1 potentiator	gsp antagonist	Menin-MLL FL inh	Sfp PPTase inh	CtBP-E1A inh	gsp ag	ClpP mod
COC(=O)C1=C(c2ccc(F)cc2F)C[C@@H]2CC[C@H]1N2C(=O)NCc1ccco1
 : 2	-5%	/	/	/	23%	1.0%
O=C(COc1ccccc1Cl)N1CCCC(N2CCN(c3ccc(F)cc3)CC2)C1 (stereo unspecified)
 : 16	-15%	/	9%	-10	-2%	-1.0%
Cc1cccc(CCNCc2cc3ccc(C)cc3[nH]c2=O)c1
 : 0	-1%	4.7	-6%	0	15%	-20%
COc1ccc(CN2C(=O)NC(=O)/C(=C/c3ccc([N+](=O)[O-])o3)C2=O)cc1
 : 15	/	?	50µM*	/	/	/
CCOc1ccc(-c2cc(C)[n+](CCN(CC)CC)c(-c3ccc(OCC)cc3)c2)cc1
 : 2	-1%	-0.1	24%	/	5%	3.7%
Cc1ccc(C(=O)C2CN(C)CC2C(=O)c2ccc(C)cc2)cc1 (stereo unspecified)
 : -1	15%	3.9	17%	-5	-16%	-0.6%
CC(C)(C)P(=O)(NCc1ccccc1)c1ccccc1 (stereo unspecified)
 : 6	8%	-0.2	6%	0	4%[15.4 µM]	/
C[C@]12CCC3C(CC[C@H]4C[C@H](N)CC[C@]34C)C1CC[C@H]2O (stereo partly specified)
 : 28	16%	1.0	-1%	/	0%	1.4%
C=CCCC1(C(C)C)C(=O)NC(=S)NC1=O
 : /	4%	/	/	0	-3%	-4.8%
COC(=O)C1=CO[C@@H](C)[C@@H]2CN3CC[C@]4(C(=O)Nc5ccccc54)[C@@H]3C[C@H]12
 : -5	9%	-0.5	-6%	0	/	-12%
COP(C)(=O)c1c(C)nn(-c2ccccc2)c1C (stereo unspecified)
 : /	12%	8.9	18%	-3	?	1.1%
COC1C(O)C(C)OC(OC2CCC3(C)C(CCC4C3C(O)CC3(C)C(C5=CC(=O)OC5)CCC43O)C2)C1O (stereo unspecified)
 : /	2%	/	/	-1	6%	-1.3%
COC(=O)C1=C(c2ccc(C(C)=O)cc2)C[C@@H]2CC[C@H]1N2C(=O)NCC1CC1
 : -2	4%	/	/	/	7%	0.1%
CCOC(=O)c1ccc(N=C(C)c2c(O)[nH]c(=O)[nH]c2=O)cc1
 : 12	4%	4.1	-24%	3	21%[15.4 µM]	/
O=c1c2ccccc2nc(-c2ccco2)n1-c1ccncc1
 : -5	8%	-0.5	4%	-4	-1%	0.9%
Cc1ccc(O)c(C(=O)c2cc(C(=O)NCCC(C)C)c(=O)n(CCC(C)C)c2)c1
 : -7	-20%	5.3	9%	-20	-5%	/
CC(C)OC(=O)C1C(=O)NC2(C)CC1c1ccccc1O2 (stereo unspecified)
 : 5	8%	8.7	8%	6	-2%	-2.2%
COc1ccc(C(=O)C2CCCN(Cc3ccon3)C2)c(OC)c1 (stereo unspecified)
 : 6	50µM*	-0.4	5%	1	4%	/
COCCNC(=O)N1[C@H]2CC[C@@H]1C(C(=O)OC)=C(c1ccc(OC)c(OC)c1)C2
 : 13	13%	/	/	10	/	-0.3%
O=C(N/N=C/c1c(O)n(CCc2ccccc2)c(=O)[nH]c1=O)c1ccccc1
 : -12	8%	25	9%	-20	-7%[15.4 µM]	-1.1%

More entries follow:
Results follow in this order: TRPV1 potentiator	gsp antagonist	Menin-MLL FL inh	Sfp PPTase inh	CtBP-E1A inh	gsp ag	ClpP mod
CC(C)[C@]12CC(=O)[C@H](C)[C@H]1C2
 : -2	9%	/	/	1	/	0.5%
C[N+]12CN3CN(CN(C3)C1)C2
 : 3	7%	1.1	13%	-4	-49%	-1.3%
O=C(CN1C(=O)CN=C(c2ccccc2Cl)c2cc(Cl)ccc21)NCc1ccco1
 : -6	-14%	-1.6	-11%	1	9%	0.8%
CCCCn1c(O)c(C(C)=NCc2ccc(F)cc2)c(=O)[nH]c1=O
 : -12	19%	0.9	3%	9	-13%	0.2%
OCC12CO[C@@H]3c4ccccc4[C@H](OC1)N32 (stereo partly specified)
 : 7	38%[activator]	6.1	5%	4	0%	1.0%
CCN1C[C@]2(C)CC[C@H](OC)[C@]34C2[C@H](OC(C)=O)[C@@]2(OCO[C@@]25C[C@H](OC)[C@H]2C[C@]3(O)C5[C@H]2OC)[C@@H]14
 : 26	-16%	-1.5	27%	-5	-29%	-3.7%
CCC(=NCc1cccnc1)c1c(O)n(-c2ccc(Cl)cc2)c(=O)[nH]c1=O
 : -2	0%	-7.9	13%	-2	-4%[15.4 µM]	0.5%
CCN1CCN(Cc2ccccc2C)CC1
 : 1	-2%	3.7	7%	3	1%	-1.7%
O=C1NC(=O)N(c2ccc3c(c2)OCO3)C(=O)/C1=C/c1ccc(N2CCCCC2)o1
 : -18	-11%	?	-9%	4	20%	-1.8%
COc1ccc2[nH]cc(CCN(C)C)c2c1
 : -3	-2%	-1.2&0.6	-9%&22%	-6	/	-4.5%
Cc1noc(C)c1CC(=O)N1CCCC(N2CCN(c3ccccc3F)CC2)C1 (stereo unspecified)
 : /	15%	/	/	0	3%	-3.4%
O=C(c1ccc(F)cc1)N1CCC(N2CCCCCC2)CC1
 : 0	11%	4.8	?	31	2%	4.3%
O=C1CC(=O)N(c2ccccc2)C(=O)N1c1ccccc1
 : -8	-2%	10	-23%	-13	-25%	/
CC1CCCC(C)N1/N=C/c1c[nH]c2ccc(Br)cc12 (stereo unspecified)
 : 5	3%	5.8	0%	-10	-1%	0.7%
Cn1c(O)c(Cc2cccc(Cl)c2Cl)c(=O)n(C)c1=O
 : 5	2%	-0.6	0%	5	8%	-0.9%
O=C(NCC1=C(c2cccc3ccccc23)C[C@@H]2CC[C@H]1N2Cc1ccco1)c1cccnc1
 : /	/	/	/	2	?	-0.8%
CCCCn1c(=O)c(C(=O)Nc2ccccc2F)c(O)c2ccccc21
 : -3	5%	-1.0	-3%	5	-65%[inhibitor]	/
O=C(Nc1ccccc1OC(=O)N1CCOCC1)N1CCOCC1
 : -9	15%	5.6	4%	5	-24%	-2.6%
Cc1ccc(-n2c(C)cc(/C=C3\C(=O)NC(=O)N(C)C3=O)c2C)cc1C
 : -7	-12%	21	-19%	-5	?	0.8%
